Screening results from PubChem BioAssay.
CSC inhib: cancer stem cell inhibition. 1.1% of 300,000 active. AID 2717. inhibition, % at 7.5 µM. cancer stem cell-like cells viability, luminescence;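 active = mean at 75% or more and at least half the replicates too; inconclusive = mean and replicates disagree; tested in HMLE shEcad cells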;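 also: 0% = median of negative and 100% = median of positive control wells; the first replicate is given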
Rce1 inh: inhibitors of yeast Ras-converting enzyme | yeast membranes, quenched prenylated peptide cleavage fluorescence | AID 2563 | calls only | Q03530 | 0.27% of 290,000 active;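 active = fall in fluorescence gain of 50% or more versus controls, with final raw signal at or below 3038400; inconclusive = same 50% fall but final raw signal above 3038400; inactive = fall in fluorescence gain under 50%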;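 also: plate controls were neutral control wells for no effect and wells lacking membranes for full effect; tested at 10 µM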
Target sequence (Q03530 whole entry, looked up): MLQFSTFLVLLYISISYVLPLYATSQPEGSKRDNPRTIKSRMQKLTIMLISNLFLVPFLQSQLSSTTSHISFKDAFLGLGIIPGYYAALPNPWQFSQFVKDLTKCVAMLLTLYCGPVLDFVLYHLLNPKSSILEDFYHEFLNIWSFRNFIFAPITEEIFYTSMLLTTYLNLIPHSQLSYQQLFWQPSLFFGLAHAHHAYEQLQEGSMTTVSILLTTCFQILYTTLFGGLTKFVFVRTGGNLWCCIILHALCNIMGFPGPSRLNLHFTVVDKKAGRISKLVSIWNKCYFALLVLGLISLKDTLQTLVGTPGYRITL
UUG fidelity: alters start codon recognition fidelity in yeast; S. cerevisiae UUG-firefly luciferase reporter, luminescence/redox ratio; activity score, % at 18.7 µM; 0.13% of 350,000 active; AID 602363;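 active = replicate mean at a twofold rise or more, about +100% in these data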;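 also: firefly luciferase made from a UUG start codon reports start codon fidelity; reporter light over untreated wells divided by growth signal over untreated wells; some hits fall short of that in this replicate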
PABP FP inh: PABP-poly(A) binding inhibition; P11940; PABP-poly(A) RNA binding, fluorescence polarization; inhibition, % at 35 µM; 1% of 290,000 active;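 active = 50% or more with normal probe brightness, or confirmed in later tests; inconclusive = above 50% with abnormal brightness, or retests that disagree; inactive = below 50% or failed in later tests; about a fifth of its hits are not listed in these tables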;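 also: calls also rest on retests at 20 µM and on dose response follow-up; controls were probe without protein and protein plus probe with vehicle; some compounds called inactive have numbers as strong as hits; many hits fall short of the cut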
Target sequence (P11940 whole entry, looked up): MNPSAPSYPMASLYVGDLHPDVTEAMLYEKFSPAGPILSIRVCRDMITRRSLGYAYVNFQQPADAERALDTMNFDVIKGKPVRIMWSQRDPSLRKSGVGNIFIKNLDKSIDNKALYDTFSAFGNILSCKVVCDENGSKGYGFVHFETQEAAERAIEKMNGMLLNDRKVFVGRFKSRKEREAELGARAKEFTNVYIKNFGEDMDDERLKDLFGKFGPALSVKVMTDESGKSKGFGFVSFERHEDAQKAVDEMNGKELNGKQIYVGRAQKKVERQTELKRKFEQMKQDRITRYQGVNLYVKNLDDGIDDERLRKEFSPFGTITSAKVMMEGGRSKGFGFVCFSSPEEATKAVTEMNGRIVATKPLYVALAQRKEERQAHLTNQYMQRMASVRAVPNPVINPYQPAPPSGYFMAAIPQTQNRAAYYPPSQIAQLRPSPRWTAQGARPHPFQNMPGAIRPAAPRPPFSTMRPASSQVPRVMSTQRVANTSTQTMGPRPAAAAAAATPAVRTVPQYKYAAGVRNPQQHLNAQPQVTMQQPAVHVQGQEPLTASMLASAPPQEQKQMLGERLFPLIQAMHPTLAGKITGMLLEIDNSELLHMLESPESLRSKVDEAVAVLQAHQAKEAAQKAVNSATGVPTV
eIF4H inh: inhibitors of RNA binding by human eIF4H; inhibition, % at 35 µM; eIF4H fluorescence polarization binding assay; AID 2012; 0.94% of 290,000 active;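 active = 50% or more with normal probe brightness, or confirmed in later tests; inconclusive = above 50% with abnormal brightness, or retests that disagree; inactive = below 50% or failed in later tests; about a fifth of its hits are not listed in these tables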;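 also: calls also rest on retests at 20 µM and on dose response follow-up; 0% = protein and probe with vehicle and 100% = probe without protein; strong numbers were not always called active; many hits fall short of the cut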
MT1-MMP act inh: blocks activation of human MT1-MMP. P50281. HT1080 RFP-PRO-GFP cells, GFP/RFP ratio fluorescence, overnight; percent of plate control window, DMSO zero. GFP/RFP ratio change, % at 20 µM. 0.061% of 360,000 active;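 active = GFP/RFP ratio change of at least 30% with cell ATP level not reduced by more than half and red fluorescence within 50% of control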; also: strong numbers were not always called active
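Assay system: RFP-PRO-GFP reporter HT1080 cells; read-out basis: GFP/RFP fluorescence ratio; benchmarks: DMSO wells and RFP-L50D-GFP cells; doses: 20 µM single dose, 1% DMSO; schedule: overnight cell settling, then overnight compound exposure, 37 °C, 5% CO2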
HIV Env fusion: inhibitors of HIV Env-mediated cell fusion | HeLa-JRFL Env/CEM21 cell fusion, luciferase | inhibition, % at 12.3 µM | 1.1% of 360,000 active | AID 651610;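 active = mean replicate inhibition score of at least 50 and every replicate individually at or above 50; inconclusive = only one of the two criteria met; inactive = mean below 50 and not all replicates reaching 50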;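 also: 0% = plate neutral controls and 100% = maraviroc near 300 nM; one replicate is shown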
eIF4H inh retest: second read-out of eIF4H inh, no call of its own (marks repeat the call); inhibition, %; compound at 20 µM; confirmation average;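 mean of two retest wells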
PABP FP inh retest: second read-out of PABP FP inh, no call of its own (marks repeat the call); inhibition, %; compound at 20 µM; confirmation repeats;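 mean of two retest wells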
MT1-MMP act inh RFP: also measured in MT1-MMP act inh; calls as there; RFP signal change, %; measured here: RFP expression control read;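 0 = vehicle wells; hits needed this value within 50% of zero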
* hit, by the source's call; i = inactive; ? = inconclusive; / = not tested or not shown. Hits appear at their usual frequency; 2.9% or so of the library scored in one or more.

Sample of the layout (2 entries):
SMILES	CSC inhib	Rce1 inh	UUG fidelity	PABP FP inh	eIF4H inh	MT1-MMP act inh	MT1-MMP act inh RFP	HIV Env fusion	others
O=C(Cn1cc2c(n1)CCCC2)Nc1cc(-c2cccc(Cl)c2)no1	-4	i	-29	-14	6	7	2	-38
CCc1ncc(C(O)c2ccc(Cl)cc2)n1Cc1ccccc1 (stereo not given)	/	/	-12	/	/	2	-12	1

All compounds of this part, repeating the preview:
SMILES	CSC inhib	Rce1 inh	UUG fidelity	PABP FP inh	eIF4H inh	MT1-MMP act inh	MT1-MMP act inh RFP	HIV Env fusion	others
O=C(Cn1cc2c(n1)CCCC2)Nc1cc(-c2cccc(Cl)c2)no1	-4	i	-29	-14	6	7	2	-38
CCc1ncc(C(O)c2ccc(Cl)cc2)n1Cc1ccccc1 (stereo not given)	/	/	-12	/	/	2	-12	1
COCCCNC(=O)c1c(N)n(-c2cccc(S(N)(=O)=O)c2)c2nc3ccccc3nc12	2	i	1	8	-5	14	6	/
COc1ccccc1CN1CCNC(=O)C1CC(=O)NCCCN1CCCC1=O (stereo not given)	-6	i	-2	16	7	-1	-3	7
O=C(CSc1ccccc1)NCCc1ccc(F)cc1	-2	i	4	-1	10	0	-1	-4
O=C(NN1C(=O)C2C3C=CC(C3)C2C1=O)c1cccc(Cl)c1 (stereo not given)	-4	i	/	9	2	1	4	/
O=C1CCC/C(=N/NC(=O)c2sc3ccccc3c2Cl)C1	9	i	/	?	?	-136	-4	-15
Cc1onc(-c2ccccc2Cl)c1C(=O)Nc1cccc(S(=O)(=O)N2CCOCC2)c1	6	/	0	/	/	0	1	/
Cc1csc(NC(=O)c2ccc(Cl)cc2[N+](=O)[O-])n1	3	i	0	-3	-10	0	1	0
CCN1CCN(c2ccc(S(=O)(=O)N3CCCCC3)cc2NC(=O)c2ccc(OC(F)F)cc2)CC1	-4	i	-7	/	/	-1	0	9
Cc1ccc(S(=O)(=O)NCCC2=CCCCC2)cc1C(N)=O	-5	i	-1	2	1	-2	-24	33
COc1ccc(CCC(=O)N2CCN(C(=O)c3ccccc3)CC2)cc1	-7	i	-3	6	-6	-2	2	-27
CSc1ccc(CN2CCC(N3CCC(C(=O)NC4CC4)CC3)CC2)cc1	/	/	-10	/	/	4	-1	3
Cc1cc(C(=O)Nc2cccnc2Cl)on1	/	i	3	-8	-2	4	2	8
CN(C)S(=O)(=O)CC12CCC(CC1=O)C2(C)C (stereo not given)	-8	i	-2	-10	-4	-1	6	/
COC(=O)c1ccc(NC(=O)CSc2nnc(C)n2CC2CCCO2)cc1 (stereo not given)	-4	i	-11	-7	-2	2	1	9
Cn1c(SCc2nc3ccccc3c(=O)[nH]2)nc2ccccc21	-19	i	/	-10	-3	0	1	-9
CCC1CCc2c(sc3ncnc(N4CCOCC4)c23)C1 (stereo not given)	-17	i	-7	8	0	-7	-8	/
COc1ccc2[nH]c3c(c2c1)CCN1C(=O)C(CC(=O)NCCCn2ccnc2)C[C@H](C(=O)N2CCCCC2)[C@@]31CCc1ccccc1 (stereo not given in full)	/	/	-13	/	/	-3	-7	-14
C/C(=N/O)c1cc(C(C)(C)C)c(O)c(C(C)(C)C)c1	-17	i	-19	2	7	8	6	-3
CCOc1ccc(C(=O)OC2CCCN(C)C2)cc1 (stereo not given)	12	i	-12	-6	-1	-4	2	7
CCOc1ccc(S(=O)(=O)/N=C(/Nc2ccc(S(N)(=O)=O)cc2)c2ccccc2)cc1	1	/	15	/	/	-4	-2	/
O=C(CSC1=NC(=O)C(c2ccccc2)C(=O)N1)Nc1cccc(Cl)c1 (stereo not given)	/	i	-3	12	-2	-2	2	/
CN1C(=O)S/C(=C/c2cccn2-c2cccc(C(=O)O)c2)C1=O	5	i	-11	22	20	-2	-1	-20
O=C(COc1ncnc2ccccc12)N1CCN(c2ccccc2)CC1	-5	i	/	0	-6	0	4	-7
Cc1[nH]nc(C(F)(F)F)c1CCC(=O)NC1CCCCCC1	13	/	-9	/	/	1	4	/
OCCC1CN(Cc2cccn2-c2cccnc2)CCN1Cc1ccccc1 (stereo not given)	-10	i	/	18	6	-5	-1	0
CCCn1nc2cc(C(=O)NCc3ccccc3OC)ccc2c1OCC	-35	i	-9	-6	-15	2	3	33
O=C(NCCCN1CCCC1=O)c1cc(NS(=O)(=O)c2ccc(F)cc2)cc(NS(=O)(=O)c2ccc(F)cc2)c1	-11	i	-4	7	-11	4	3	-71
CCc1ccc(NC(=O)c2cc(-c3cccs3)on2)cc1	53	i	-8	2	1	3	1	4
Cn1cc(C(=O)N/N=C/c2cc(Br)cs2)c2ccccc21	39	i	/	2	-3	/	/	/
Cn1c(SCC(=O)Nc2nncs2)nnc1C1CC1	17	i	-14	80*	90*	1	2	-13
Cc1cc(C)cc(C(=O)NCC(=O)OCC(=O)N2CCCCC2)c1	-5	i	/	17	0	1	3	16
CCC(=O)Nc1cccc(-c2ccc(N3CCCCC3)nn2)c1	16	i	-38	5	-14	3	0	-142
COC(=O)c1ccc2c(=O)[nH]c(COC(=O)c3[nH]c(C)c(C(C)=O)c3C)nc2c1	-23	/	4	/	/	0	-5	7
O=[N+]([O-])c1ccc(N/N=C/c2ccccc2O)cc1	62	i	-8	-1	-6	-5	-14	-106
O=[N+]([O-])c1ccc(Nc2nc(N/N=C/c3cccc(F)c3)nc(N3CCCC3)n2)cc1	-2	i	/	-19	-4	-3	-8	7
Cn1c2ccccc2c2cnn(CC(=O)Nc3ccccc3Br)c(=O)c21	-8	i	/	-8	1	-1	7	0
COCCCNC(=S)N1CCCN(c2nc3cc(C)c(C)cc3cc2C#N)CC1	4	i	-8	34	4	-4	1	27
COc1ccc(Br)cc1C1N2CC3(C)CN1CC(C)(C2)C3=O (stereo not given)	-27	i	-11	-6	-7	0	1	-82
CC1=NN(C(=O)c2cc(C)nn2C)C(O)(C(F)(F)F)C1 (stereo not given)	6	i	/	0	-7	0	3	8
Cc1cc(C)cc(NCc2cc(=O)oc3cc(C)c(O)cc23)c1	14	i	-4	6	2	1	-11	-11
Cc1nnc(-c2cnn(C)c2N)n1Cc1ccccc1	-6	i	-16	-10	-11	-3	2	-29
Cc1cc(C(=O)NCc2cccnc2)cs1	-5	i	-18	-7	-4	1	-1	/
COC(=O)c1ccc(CN2C(=O)C(C)N(C(=O)c3c(F)cccc3F)c3ccccc32)cc1 (stereo not given)	14	i	-14	-1	-4	2	-3	1
CCSc1nc2c(c(=O)[nH]1)C(c1ccncc1)C(C(=O)OC(C)C)=C(C)N2 (stereo not given)	-1	i	-2	-10	1	-2	0	-17
CCOC(=O)/C(C(C)=O)=C1\OC(=O)c2ccccc21	-8	i	-13	15	-8	13	1	-70
COc1ccccc1N(CC(=O)Nc1cccnc1)S(C)(=O)=O	-6	i	-8	-6	-14	0	6	/
NNC(=O)c1cccn(Cc2cccc(C(F)(F)F)c2)c1=O	-6	i	-2	-2	5	10	-15	31
CCc1nnc(NC(=O)C2Cc3ccccc3C(=O)O2)s1 (stereo not given)	9	i	-11	5	0	3	8	-3
Next section
SMILES	CSC inhib	Rce1 inh	UUG fidelity	PABP FP inh	eIF4H inh	MT1-MMP act inh	MT1-MMP act inh RFP	HIV Env fusion	others
CCCn1c(SCC(=O)Nc2cccc(NC(C)=O)c2)nnc1C(C)C	-12	i	-7	-12	-12	-1	0	/
COc1cc(OC)c(-c2nn3c(-c4ccco4)nnc3s2)cc1OC	/	/	-8	17	75*	16	1	-187	eIF4H inh retest=59*;PABP FP inh retest=27
N#CC1=C(N)OC2=C(C(=O)CCC2)C1c1ccncc1 (stereo not given)	-2	i	-18	2	5	2	-1	/
C[C@@H]1CN([C@@H](C)CO)C(=O)Cc2cc(NS(=O)(=O)c3ccccc3)ccc2O[C@H]1CN(C)S(C)(=O)=O	-4	/	3	/	/	2	7	-5
Fc1ccc(-c2nnc(-c3ccc(F)cc3)o2)cc1	-21	i	-18	-10	-3	-1	-2	-38
COCCCNCCCOc1ccc(Cl)cc1C(C)(C)C	23	i	/	-6	11	-4	-1	-10
Cc1ccc(NC2CCCCC2NS(=O)(=O)c2ccc(Cl)cc2)cc1 (stereo not given)	-4	i	-5	-11	-3	-6	-8	23
Cn1c(=O)c2cc(NC(=O)NCc3ccc(Cl)cc3Cl)ccc2n1Cc1ccccc1	/	/	-29	/	/	7	-17	-13
Cc1cccc(NC(=S)NCC2CCCO2)c1 (stereo not given)	3	i	-14	-7	-5	2	2	/
COc1ccc2c(c1)C(=O)N(c1ccccc1)C(=O)C2	10	i	-1	25	16	-4	-1	-13
O=C(c1ccc2c(c1)CCN2S(=O)(=O)c1ccccc1)N1CCN(c2ccccc2)CC1	/	i	14	-2	-6	2	-2	-8
CC(=O)N1N=C(c2cccc([N+](=O)[O-])c2)OC1c1ccc(Br)cc1 (stereo not given)	-13	i	/	5	0	5	3	-6
Cn1c(=O)n(Cc2ccccc2)c2ccccc21	-4	i	-11	2	-5	0	2	/
NS(=O)(=O)c1ccc(N2C(=O)CCCC2=O)cc1	/	/	-10	/	/	1	1	-18
C[C@H](CO)N1C[C@H](C)[C@@H](CN(C)C(=O)Nc2ccc3c(c2)OCO3)Oc2ccc(NS(=O)(=O)c3ccccc3)cc2C1=O	4	/	2	/	/	4	6	2
COc1cc(OC)c(NC2c3ccccc3C(=O)N2c2cc(C)ccn2)cc1Cl (stereo not given)	-3	i	11	1	9	5	5	-31
COc1cccc(NC(=S)NC(=O)c2cccnc2)c1	-9	i	-13	4	-4	0	-2	-19
COC(=O)c1c(N=CN(C)C)c(C#N)c2n1CCCC2	-9	i	-18	3	1	-5	5	-50
Cc1nc(N2CCOCC2)nc(Oc2ccccc2)c1[N+](=O)[O-]	1	i	/	0	-4	1	1	13
COc1cc(OC)cc(C(=O)N2CCN(S(=O)(=O)c3ccc4c(c3)OCCO4)CC2)c1	/	/	-18	/	/	1	-1	3
COC(=O)c1c(-c2ccc(OC)cc2)sc2ccc(-c3ccc4c(c3)OCO4)cc12	40	/	-17	/	/	-5	-2	0
CC(=O)N1CCc2nc3ccccc3cc21	/	/	-10	/	/	-4	3	-8
CCO/N=C(\N)c1[nH]ncc1Br	-10	i	-12	-4	-6	5	0	-2
CCOC(=O)Cn1nc(-c2ccc(Cl)cc2)ccc1=O	5	i	-5	-3	-13	5	-1	31
O=C(c1ccco1)N(Cc1ccc2c(c1)OCO2)Cc1cc2cc3c(cc2[nH]c1=O)OCO3	-9	i	-4	3	17	6	1	-3
CC(CS(=O)(=O)c1ccccc1[N+](=O)[O-])N1CCOCC1 (stereo not given)	/	i	/	5	6	-1	3	-12
CCCCN(C)Cc1c(C(=O)N2CCc3ccccc3C2)nc2ccc(Cl)cn12	3	i	-8	47	74	-10	1	36	eIF4H inh retest=-6;PABP FP inh retest=14
CN(Cc1ccccc1)C(=S)Nc1ccc2nc3n(c(=O)c2c1)CCCCC3	40	i	/	4	-5	-2	-3	9
Cc1cc(/C=N/n2cnnc2)c(C)n1-c1ccc(OCc2ccc(F)cc2)cc1	/	i	-8	-2	-5	-15	-24	66*
Cc1ccc(CNC(=S)Nc2cc(C)ccc2OC(F)F)cc1	3	i	-29	-6	-1	-1	-1	-8
COCCCNC(=S)N(Cc1cccnc1)Cc1ccc(OC)c(OC)c1	3	i	-21	2	-9	2	1	/
